Assay outcomes as filed in PubChem.
PD-1 reverse act = activators reversing PD-1 mediated T-cell inhibition, primary screen, luminescence, primary human CD4 T cells, PD-L1 beads | activation, % (test concentration not listed) | 29,000 tested, under 10 active | CellTiter-Glo 96 h | AID 2316, 2010;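 active = replicate mean of 50% or more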;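 also: 0% = median vehicle wells and 100% = positive control; 100 nL library stock added to about 50 µL; numbers are from one replicate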
Hedgehog inh = Hedgehog pathway signaling inhibitors, primary screen, luminescence, Shh-LIGHT2 cells, Gli-luciferase; Shh-LIGHT2 Gli-luciferase reporter, 30 h; inhibition, % (no concentration beside the values); 2.1% of 22,000 active;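 active = replicate mean of 65% or more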;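 also: pathway switched on by Shh-conditioned medium diluted 1 in 25 in low serum; 100 nL library stock added to about 40 µL; 0% = median of neutral wells and 100% = positive control level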
YB-1 expression = inhibitors of YB-1 gene expression, primary screen, cell-based, fluorescence; U2OS, qRT-PCR YB-1 vs CDIP delta delta Cp, 16 h; hits give high values; zero = DMSO, each unit about twofold; delta delta Cp (YB-1 minus CDIP) (no concentration beside the values); 0.37% of 30,000 active; AID 434959, 2010;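 active = delta delta Cp rounded down to an integer at or above 3, about 3 SD of DMSO wells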;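 also: higher means less YB-1 transcript or more CDIP transcript relative to DMSO; stock transfer was 100 nL into about 100 µL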
MITF inh = inhibitors of MITF, primary screen, MITF inhibitor project, cell-based, luminescence | TRPM1 promoter luciferase, 24 h | 0.28% of 37,000 active | inhibition, % (no concentration beside the values) | AID 2240, 2010;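 active = most replicates at 85% or more, or half of them and the mean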;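 also: human melanocyte line stably carrying TRPM1 promoter luciferase reporter; 0% = vehicle wells and 100% = a positive control; the first replicate is given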
* hit, by the source's call; nt = not tested or not shown; & = joins results of further samples. Only part of the results is shown; rates above refer to the full screens.

SMILES | PD-1 reverse act | Hedgehog inh | YB-1 expression | MITF inh
CC(C)NC(=O)N(C)C[C@H]1Oc2c(NC(=O)c3cnccn3)cccc2C(=O)N([C@@H](C)CO)C[C@H]1C | 1.0 | -46.7 | -0.396 | -7.1
Cc1noc(C)c1S(=O)(=O)Nc1ccc2c(c1)CC(=O)N([C@H](C)CO)C[C@@H](C)[C@@H](CN(C)S(C)(=O)=O)O2 | 1.5 | -4.0 | -0.303 | -8.4
COc1cccc(NC(=O)CNC(=O)c2cccs2)c1 | -0.5 | nt | nt | -61.2
C[C@@H]1CCCCO[C@H](CN(C)S(=O)(=O)c2cn(C)cn2)[C@@H](C)CN([C@H](C)CO)C(=O)c2cc(NC(=O)Nc3cccc4ccccc34)ccc2O1 | 1.7 | -12.4 | 0.0649 | -8.0
Cc1noc(C)c1S(=O)(=O)Nc1cccc2c1O[C@@H](CN(C)S(=O)(=O)c1cccs1)[C@@H](C)CN([C@H](C)CO)C2=O | -0.2 | 4.2 | 0.0291 | 3.8
COc1ccc(NC(=O)N(C)C[C@@H]2Oc3ccc(NC(=O)Nc4ccc(F)cc4)cc3C(=O)N([C@H](C)CO)C[C@@H]2C)cc1 | nt | 15.3 | 0.172 | -8.4
COc1ccc(CN(C)C[C@@H]2Oc3c(NS(=O)(=O)c4ccccc4)cccc3C(=O)N([C@@H](C)CO)C[C@H]2C)cc1 | 1.8 | 6.7 | -0.157 | -11.4
C[C@H](CO)N1C[C@H](C)[C@@H](CN(C)S(=O)(=O)c2cn(C)cn2)Oc2c(NS(=O)(=O)c3cn(C)cn3)cccc2C1=O | nt | -21.5 | 0.273 | -3.6
O=C(OCCn1ncc2ccccc2c1=O)c1cccs1 | -0.6 | -50.8 | 0.242 | -22.4
O=C(ON1C(=O)c2ccccc2C1=O)C1CCCCC1 | -2.7 | 69.8* | -0.332 | 17.8
Cn1c(SCC(=O)c2cc3ccccc3o2)nnc1-c1ccccc1 | 0.2 | nt | nt | -9.6
O=C(CSc1ccccn1)Nc1ccc(Oc2ccccc2)cc1 | 1.1 | nt | nt | -40.6
O=C(OCc1cccc(O)c1O[C@@H]1O[C@H](CO)[C@@H](O)[C@H](O)[C@H]1O)C1(O)C(=O)C2C=CC1C1C=CC(=O)C(O)(C(=O)OCc3cccc(O)c3O[C@@H]3O[C@H](CO)[C@@H](O)[C@H](O)[C@H]3O)C21 (some centres undefined) | -9.1 | -45.5 | -0.0664 | -11.7
CC1(C)CCC2(C(=O)OC3OC(COC4OC(CO)C(O)C(O)C4O)C(O)C(O)C3O)CCC3(C)C(=CCC4C5(C)CCC(OC6OCC(O)C(O)C6O)C(C)(C)C5CCC43C)C2C1O (centres undefined) | 2.0 | -16.7 | -0.018 | -2.9
CCC(C)/C=C(C)/C=C/C1=CC2=C(Cl)C(=O)C(C)(OC(C)=O)C(=O)C2=CN1CCCC(=O)O (centres undefined) | -0.5 | 1.4 | -0.363 | 8.9
Cc1cc(Cl)ccc1N(CC(=O)Nc1cccc(C)c1C)S(C)(=O)=O | 0.6 | nt | nt | 2.2
C[C@@H]1CN([C@H](C)CO)C(=O)Cc2cc(NC(=O)Nc3cccc4ccccc34)ccc2O[C@@H]1CN(C)Cc1ccncc1 | -1.0 | nt | 0.0991 | -8.6
Fc1ccc(N2CCN(CCC3OCCc4ccccc43)CC2)cc1 (centres undefined) | nt | 8.0 | -0.0278 | 3.4
C=C1CC[C@H]2C(=C)CC[C@@]3(O)C(=C)C(=O)O[C@@H]3[C@@H]12 | -15.9 | 29.6 | 0.0512 | 7.4
C[C@H](CO)N1C[C@H](C)[C@@H](CN(C)C(=O)Nc2ccc(F)cc2)Oc2c(NS(=O)(=O)c3cn(C)cn3)cccc2C1=O | 0.8 | -48.6 | -0.185 | -9.3
COc1ccc(NC(=O)CN(c2ccc(OC)c(Cl)c2)S(C)(=O)=O)cc1Cl | 0.3 | nt | nt | 22.9
C=CCn1c2ccccc2c2nnc(SCC(=O)N3c4ccccc4Sc4ccccc43)nc21 | -1.8 | nt | nt | 27.5
CC(C)=CCc1c2c(c3occ(-c4ccc(O)cc4)c(=O)c3c1O)C=CC(C)(C)O2 | nt | 50.9 | 0.303 | 37.4
C[C@@H]1CN([C@H](C)CO)C(=O)c2cc(NS(=O)(=O)c3ccc(F)cc3)ccc2O[C@H]1CN(C)Cc1ccc(C(F)(F)F)cc1 | -2.5 | nt | 0.0321 | 5.8
Cc1ccc(S(=O)(=O)N(C)C[C@H]2Oc3ccc(NC(=O)NC4CCCCC4)cc3C(=O)N([C@H](C)CO)C[C@@H]2C)cc1 | 0.3 | 17.1 | -0.0685 | 9.4

A second format for some results above.
| Compound | PD-1 reverse act | Hedgehog inh | YB-1 expression | MITF inh |
| --- | --- | --- | --- | --- |
| O=C(ON1C(=O)c2ccccc2C1=O)C1CCCCC1 | -2.7 | 69.8* | -0.332 | 17.8 |
| Cn1c(SCC(=O)c2cc3ccccc3o2)nnc1-c1ccccc1 | 0.2 | nt | nt | -9.6 |

Next section
SMILES | PD-1 reverse act | Hedgehog inh | YB-1 expression | MITF inh
C[C@@H]1CCCCO[C@@H](CN(C)Cc2ccc(C(=O)O)cc2)[C@@H](C)CN([C@H](C)CO)C(=O)c2cc(NC(=O)c3ccncc3)ccc2O1 | nt | -21.2 | -0.127 | -19.1
Cc1noc(C)c1NC(=O)N(C)C[C@@H]1Oc2ccc(NC(=O)c3ccncc3)cc2CC(=O)N([C@H](C)CO)C[C@H]1C | nt | -21.8 | -0.000937 | -2.6
O=C(CC1(O)C(=O)N(Cc2ccccc2)c2ccc(Br)cc21)c1ccc2c(c1)OCCO2 (centres undefined) | 0.9 | nt | nt | 4.7
C[C@@H]1CN([C@H](C)CO)C(=O)Cc2cc(NC(=O)Cc3cn(C)c4ccccc34)ccc2O[C@@H]1CN(C)Cc1ccc(Oc2ccccc2)cc1 | -9.2 | 31.5 | 0.0387 | 20.7
COc1cc(C2C(C(=O)c3cccs3)C(=O)C(=O)N2Cc2ccco2)cc(OC)c1OC (centres undefined) | 4.1 | nt | nt | -12.8
O=C(COc1ccc(Cl)cc1)Nc1ccc2oc(-c3cccc(F)c3)nc2c1 | 3.4 | nt | nt | -76.8
CC(C)(O)CC[C@@H](O)[C@](C)(O)C1CC[C@@]2(O)C3=CC(=O)C4C[C@@H](O)[C@@H](O)C[C@]4(C)C3CC[C@]12C (some centres undefined) | nt | -19.7 | -0.502 | -11.1
COc1ccc(S(=O)(=O)Nc2ccc3c(c2)CC(=O)N([C@@H](C)CO)C[C@@H](C)[C@@H](CN(C)C(=O)Nc2ccc4c(c2)OCO4)O3)cc1 | 1.5 | -18.9 | -0.0394 | -2.9
C[C@@H]1CN([C@H](C)CO)C(=O)Cc2cc(NS(=O)(=O)c3ccc(F)cc3)ccc2O[C@@H]1CN(C)CC1CCCCC1 | -3.2 | 3.9 | -0.153 | -2.3
Cc1cc(C)c2c(N)c(C(=O)c3cccs3)sc2n1 | -0.4 | 2.1 | -0.148 | -32.0
C[C@H]1CN([C@@H](C)CO)C(=O)c2cccc(NS(=O)(=O)c3ccc(Cl)cc3)c2O[C@H]1CN(C)C | 1.7 | -0.4 | -0.388 | 0.1
COc1ccc(S(=O)(=O)Nc2cccc3c2O[C@@H](CN(C)C)[C@@H](C)CN([C@H](C)CO)C3=O)cc1 | 0.9 | -107.9 | -0.148 | 3.1
C[C@H](CO)N1C[C@H](C)[C@H](CN(C)Cc2ccc(-c3ccccc3)cc2)Oc2ccc(NC(=O)CCC(F)(F)F)cc2CC1=O | -2.0 | -19.4 | 0.617 | -6.7
C[C@H]1CN([C@@H](C)CO)C(=O)Cc2cc(NS(=O)(=O)c3ccc(Cl)cc3)ccc2O[C@H]1CN(C)CC1CC1 | 0.9 | nt | -0.867 | -7.5
C[C@@H]1CN([C@H](C)CO)C(=O)c2cc(NC(=O)Nc3ccccc3)ccc2O[C@@H]1CN(C)Cc1ccncc1 | -0.2 | -8.0 | 0.455 | -10.5
C[C@H]1CN([C@@H](C)CO)C(=O)Cc2cc(NC(=O)CCN3CCOCC3)ccc2O[C@H]1CN(C)C(=O)Nc1cccc2ccccc12 | -0.6 | -33.3 | 0.082 | -1.3
C[C@@H]1CCCCO[C@H](CN(C)C(=O)Nc2ccc(C(F)(F)F)cc2)[C@@H](C)CN([C@H](C)CO)C(=O)c2cc(NC(=O)Nc3ccc4c(c3)OCO4)ccc2O1 | -3.2 | -7.9 | 0.122 | -3.6
Cc1noc(C)c1S(=O)(=O)Nc1ccc2c(c1)C(=O)N([C@H](C)CO)C[C@H](C)[C@H](CN(C)C(=O)Nc1ccccc1)O2 | -2.4 | 11.3 | 0.0312 | 13.1
CNC[C@H]1Oc2ccc(NC(=O)Cn3cnnn3)cc2CC(=O)N([C@@H](C)CO)C[C@@H]1C | nt | -20.4 | -0.117 | 1.3
C[C@H]1CN([C@@H](C)CO)C(=O)c2cc(NS(=O)(=O)c3cn(C)cn3)ccc2O[C@@H]1CN(C)CC1CCCCC1 | 0.8 | -12.9 | -0.0787 | -3.8
Cc1nccn1CC1CCc2c(c3ccccc3n2C)C1=O (centres undefined) | 6.0 | -10.0&-40.5 | 0.0527&0.263 | 6.7&2.1
COc1ccc(-c2cc3cc(OC)c(OC)cc3c(Cc3ccccc3)n2)cc1 | -0.6 | 40.4 | -0.0934 | -15.7
CNC[C@H]1Oc2c(NC(=O)Nc3ccc(C(F)(F)F)cc3)cccc2C(=O)N([C@@H](C)CO)C[C@@H]1C | -2.4 | -22.0 | -0.381 | -19.5
C[C@H](CO)N1C[C@H](C)[C@@H](CN(C)C(=O)Nc2ccc(C(F)(F)F)cc2)Oc2c(NC(=O)Nc3ccc(C(F)(F)F)cc3)cccc2C1=O | nt | -6.1 | 0.0907 | 8.2
CNC[C@H]1Oc2c(NS(=O)(=O)c3c(C)noc3C)cccc2C(=O)N([C@@H](C)CO)C[C@H]1C | nt | -15.6 | -0.141 | -0.5
SMILES | PD-1 reverse act | Hedgehog inh | YB-1 expression | MITF inh
CNC[C@H]1Oc2ccc(NC(=O)Nc3ccc(F)cc3)cc2C(=O)N([C@@H](C)CO)C[C@@H]1C | -1.1 | nt | 0.43 | 4.7
Cc1noc(C)c1C(=O)NCc1ccco1 | -0.3 | nt | nt | 2.7
COc1ccc([C@@H]2CC(=O)c3c(O)cc(O[C@@H]4O[C@H](CO[C@@H]5O[C@@H](C)[C@H](O)[C@@H](O)[C@H]5O)[C@@H](O)[C@H](O)[C@H]4O)cc3O2)cc1O | nt | -19.5 | 0.204 | -9.6
COC(=O)c1cc(-c2ccccc2)sc1NC(=S)NC(C)c1cc(OC)ccc1OC (centres undefined) | 2.2 | nt | nt | 5.9
C[C@H]1CN([C@@H](C)CO)C(=O)c2cccc(NC(=O)NC3CCCCC3)c2O[C@H]1CN(C)C(=O)Nc1ccc2c(c1)OCO2 | 0.7 | -49.1 | -0.941 | 6.9
O=CN/C=C\c1ccc(O)cc1 | 0.5 | -1.0 | -0.331 | 7.0
COc1cc(NC(=O)C(C)Oc2ccc(Cl)cc2Cl)ccc1NC(=O)c1cc2ccccc2o1 (centres undefined) | -3.5 | nt | nt | -36.9
CCc1ccc(N=C(N)N=C(N)N)cc1 | 0.0 | -24.7 | -0.136 | 4.7
Cc1ccc(S(=O)(=O)Nc2ccc3c(c2)C(=O)N([C@@H](C)CO)C[C@H](C)[C@H](CN(C)Cc2ccc(C(=O)Nc4ccccc4N)cc2)O3)cc1 | -0.9 | nt | -0.189 | 33.8
C[C@@H]1CN([C@H](C)CO)C(=O)Cc2cc(NC(=O)Cn3cnnn3)ccc2O[C@@H]1CN(C)Cc1ccc(C(=O)Nc2ccccc2N)cc1 | -3.6 | nt | -1.01 | -3.1
COc1ccc(CN(C)C[C@@H]2Oc3ccc(NS(=O)(=O)c4ccc(C)cc4)cc3CC(=O)N([C@@H](C)CO)C[C@@H]2C)cc1 | nt | nt | -0.134 | -0.7
Cc1ccc(-c2cc(C(=O)NCCCN3CCOCC3)no2)cc1 | 3.2 | nt | nt | 69.6
O=C(COc1ccc(CO)cc1)Nc1ccc(F)cc1 | 0.3 | nt | nt | -52.3
C[C@@H]1CCCCO[C@@H](CN(C)CC2CCCCC2)[C@@H](C)CN([C@H](C)CO)C(=O)c2cc(NC(=O)NC3CCCCC3)ccc2O1 | 0.7 | 0.5 | -0.0809 | -17.8

Compound profiles (already shown):
Record of Cc1ccc(-c2cc(C(=O)NCCCN3CCOCC3)no2)cc1 = PD-1 reverse act: 3.2; Hedgehog inh: nt; YB-1 expression: nt; MITF inh: 69.6
Record of C[C@@H]1CN([C@H](C)CO)C(=O)Cc2cc(NC(=O)Cn3cnnn3)ccc2O[C@@H]1CN(C)Cc1ccc(C(=O)Nc2ccccc2N)cc1 = PD-1 reverse act: -3.6; Hedgehog inh: nt; YB-1 expression: -1.01; MITF inh: -3.1
Record of O=C(COc1ccc(CO)cc1)Nc1ccc(F)cc1 = PD-1 reverse act: 0.3; Hedgehog inh: nt; YB-1 expression: nt; MITF inh: -52.3
